# From PubChem BioAssay
# Mtb betalactam: beta-lactam sensitization of Mtb H37Rv | M. tuberculosis H37Rv growth with meropenem, percent inhibition; hits of this screen are not shown here | inhibition, % at 25 µM | 0.27% of 330,000 active;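 active means about 74% or more and at least 40 points above the plate without the antibiotic, then above 30% in a dose series; inconclusive means first-round hits that could not be retested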;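 further: growth measured after seven days incubation then overnight dye step; 0% = bacteria only wells and 100% = bacteria with antibiotic; twin plates without the antibiotic show which effects depend on it; some results filed as inactive read as strong as hits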
# RecA splice inh: blocks M. tuberculosis RecA intein splicing; inhibition, %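 (about 9 µM by stock and volumes)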; cell-free RecA intein splicing, fluorescence; P9WHJ3; 0.75% of 290,000 active; in the data active means inhibition above about 30%; inconclusive means no clear call, values can overlap the other calls;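 further: 0% = vehicle wells and 100% = reference inhibitor control wells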
# Target sequence (P9WHJ3 whole entry, looked up, canonical isoform): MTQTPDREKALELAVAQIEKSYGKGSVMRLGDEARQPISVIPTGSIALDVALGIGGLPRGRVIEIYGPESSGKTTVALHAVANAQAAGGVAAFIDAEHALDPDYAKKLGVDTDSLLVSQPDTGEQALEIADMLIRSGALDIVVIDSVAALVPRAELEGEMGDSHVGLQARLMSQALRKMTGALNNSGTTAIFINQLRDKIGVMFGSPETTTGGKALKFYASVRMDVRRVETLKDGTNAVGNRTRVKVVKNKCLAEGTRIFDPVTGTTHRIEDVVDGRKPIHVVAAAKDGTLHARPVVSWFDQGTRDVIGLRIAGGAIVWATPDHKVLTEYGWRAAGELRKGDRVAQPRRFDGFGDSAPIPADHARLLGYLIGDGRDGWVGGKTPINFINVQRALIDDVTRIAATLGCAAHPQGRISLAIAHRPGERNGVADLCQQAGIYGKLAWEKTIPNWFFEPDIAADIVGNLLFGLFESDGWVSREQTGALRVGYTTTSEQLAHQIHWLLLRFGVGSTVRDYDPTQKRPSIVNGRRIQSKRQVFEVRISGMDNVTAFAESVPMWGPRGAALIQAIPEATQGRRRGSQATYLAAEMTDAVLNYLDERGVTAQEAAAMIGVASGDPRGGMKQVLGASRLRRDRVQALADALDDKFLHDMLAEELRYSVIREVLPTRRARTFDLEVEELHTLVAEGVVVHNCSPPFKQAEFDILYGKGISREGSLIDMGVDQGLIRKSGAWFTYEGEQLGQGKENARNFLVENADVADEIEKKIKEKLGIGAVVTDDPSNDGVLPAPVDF
# Mtb H37Rv: M. tuberculosis H37Rv growth inhibitors, H37Rv strain (AID 1626). M. tuberculosis H37Rv growth inhibition; higher % means a stronger effect. 0.95% of 220,000 active. inhibition, % at 10 µM, or IC50 in µM where a hit was titrated;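 active means confirmed in a dose series; inconclusive means inhibition above 80% but not taken into the dose series; inactive means below 80% or under 30% at every dose of the series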;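 further: bacteria incubated seven days before Alamar blue readout; 0% = bacteria only wells and 100% = bacteria with antibiotic wells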
# Arbovirus anti: blocks arbovirus infection. arbovirus infection cell-based antiviral screen. inhibition, % at 10 µM. 0.37% of 200,000 active;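 active means inhibition from about 30%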;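 further: bluetongue infection of BSR cells; cell survival read as ATP light after 72 h; 0% = infected wells without compound and 100% = uninfected wells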
# YopH PTP inh: blocks Yersinia enterocolitica YopH tyrosine phosphatase. 0.16% of 140,000 active. fluorescence Ex485/Em525. inhibition, %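 (about 10 µM by stock and volumes)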. AID 898;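 active means inhibition of 50% or more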;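 further: controls were vehicle for no effect and minimum signal wells for full effect; inactives centre near -20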
# Arbovirus anti repeat: further read-out of Arbovirus anti, marked with its call; inhibition, %; measured here: 10K subset replicate screen; many hits read low in the repeat;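 first of two repeat runs on a subset; 0% = infected and 100% = uninfected wells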
# Starred values were filed as active, the others as inactive; i = inactive; ? = inconclusive; · = no result given.
SMILES,Mtb betalactam,RecA splice inh,Mtb H37Rv,Arbovirus anti,YopH PTP inh,others
CCCCCCc1c(O)nc(SCCN2CCOCC2)[nH]c1=O,1,-2.2,0%,5,·,
CC(=O)NC(CC(=O)NC1CCCCCC1)c1ccccc1 (configuration not stated),0,0.2,-3%,-6,-23,
CCCS(=O)(=O)c1c(S(=O)(=O)CCC)c2ccc(C(N)=O)cn2c1C(=O)OC,-3,-0.8,0%,-7,·,
CCc1cccc(C)c1NS(=O)(=O)Cc1ccccc1,10,-0.3,·,·,·,
CC/C(O)=C1\C(=O)CCCC1=NCCc1c(C)[nH]c2ccc(C)cc12,-3,-27,6%,·,·,
CCOc1ccc(OCC)c(NC(=O)CN(c2ccc(OC)cc2)S(=O)(=O)c2c(C)noc2C)c1,-9,4.7,·,·,·,
COc1ccc([C@@H]2[C@@H]3C(=O)N(C(C)(C)C)C(=O)[C@@H]3[C@]3(Cc4ccc(Cl)cc4)C(=O)N(c4ccc(C)cc4)C(=O)N23)cc1,3,1.6,·,·,·,
Cc1ccc2cc(CN(CC3CCCO3)S(=O)(=O)c3ccc4c(c3)OCCO4)c(=O)[nH]c2c1C (configuration not stated),3,·,9%,·,0,
COCc1nc2ccccc2n1Cc1ccccc1C,1,-1.3,-8%,4,·,
Cc1ccc(C(=O)NC(=S)NNC(=O)c2ccc([N+](=O)[O-])cc2)cc1,96,5.4,·,·,·,
COc1ccccc1-n1c(-c2ccccc2)n[nH]c1=S,-4,4.1,-6%,4,·,
O=C(Nc1nnc(C2CCCCC2)s1)C1CC(=O)N(c2ccc(F)cc2)C1 (configuration not stated),8,-1.7,·,·,·,
COc1ccc(NC(=O)CN2CCN(c3ccc(C)cc3C)CC2)cc1,6,-5.5,·,·,·,
CCOCCCn1c(SCC(=O)NC(C)(C)C)nc2ccccc2c1=O,5,-1.7,9%,1,-37,
CCC(C)Sc1nnc(Cc2cc(=O)[nH]c(=O)[nH]2)n1-c1ccc(F)cc1 (configuration not stated),-1,-1.1,-10%,5,·,Arbovirus anti repeat=2
CC(C)Cn1c(N)c(C(=O)COC(=O)c2cc(-c3ccco3)nc3ccccc23)c(=O)n(C)c1=O,26,-9.4,·,15,-14,
O=C(NCC(c1ccco1)N1CCc2ccccc2C1)C(=O)Nc1cc(F)ccc1F (configuration not stated),-1,5.1,·,·,·,
COc1ccc(C(=O)Nc2nc3ccc(S(C)(=O)=O)cc3s2)cc1,20,-3.1,·,3,-28,
Cc1ccc(-c2cc(C)nc3nc(N)nn23)cc1,-6,·,2%,-1,-19,
Nc1n[nH]c(=S)n1-c1ccc(Cl)cc1,1,-2.7,-6%,·,·,
CCOC(=O)c1ccc(N=Cc2c(O)c3ccccc3oc2=O)cc1,94,-1.0,·,·,·,
O=C(c1ccc(N2CC3CC(C2)c2cccc(=O)n2C3)c([N+](=O)[O-])c1)N1CCCCC1 (configuration not stated),-4,-0.4,-3%,2,-18,
CCN(CCC(=O)Nc1ccc(Br)c(C)c1)Cc1ccccc1,-8,-11,71%,-1,-21,
Cc1c(Cl)cccc1NC(=O)Cn1c(CCC(=O)O)ccc1-c1ccc(Cl)cc1,1,2.4,·,·,·,
Cn1c(O)c(C=NCCCCCCCCCCC(=O)O)c(=O)n(C)c1=O,6,-0.6,-6%,·,·,
Cc1nc2ccccc2cc1OCc1ccc(F)cc1,23,9.3,3%,15,-25,
COc1ccc(SN=C2C(C)=CC(=O)C=C2C)cc1,100,-0.9,11µM*,0,·,
O=C(Cc1cccc2ccccc12)Nc1ccc(-c2cc3ccccc3oc2=O)cc1,0,-14,0%,-3,-42,
COc1cccc(NC(=O)COc2ccc(C)cc2)c1,87,·,45%,-8,-24,
O=S(=O)(NCc1cccnc1)c1cccs1,-6,1.9,-3%,3,-41,
Cc1ccc2nc(SCC(=O)c3ccc4c(c3)NC(=O)CO4)[nH]c2c1,13,3.8,12%,1,·,
CCOc1ccc(S(=O)(=O)Nc2ccccn2)c2ccccc12,1,-4.2,-4%,0,-8,
CCCN(CCC)CCCNS(=O)(=O)c1ccc2c(c1)oc(=O)n2C,-16,-8.7,-7%,13,-15,
CCOC(=O)c1cc2c(ccn2C)n1CC(=O)N1CCC(Cc2ccccc2)CC1,15,-0.7,20%,0,-19,
Cc1cc(C)n(-c2ccc(C(=O)Nc3nnc(C4CC4)s3)cc2)n1,-3,0.1,-5%,-8,-14,
COc1ccc(-n2c(=O)[nH]cc(C(=O)Nc3ccc4c(c3)OCCO4)c2=O)cc1OC,2,-4.3,·,·,·,
COc1ccc(C(C(=O)NCC2CCCO2)N(C(=O)CNC(=O)c2cccs2)c2ccc(NC(C)=O)cc2)cc1OC (configuration not stated),-6,-0.7,-11%,12,·,
Cc1cccc(C(=O)Nc2ccc(C(=O)N/N=C/c3cccc(C)n3)cc2)c1,5,0.8,·,·,·,
Cc1cc(NC(=O)C2CCCCC2C(=O)O)ccc1NC(=O)c1ccccc1 (configuration not stated),4,0.7,·,·,·,
S=C(NCCc1ccccc1)N1CCN(C(c2ccccc2)c2ccccc2)CC1,?,3.8,9%,-2,-37,

# The list goes on, overlapping the part above by 5 compounds.
SMILES,Mtb betalactam,RecA splice inh,Mtb H37Rv,Arbovirus anti,YopH PTP inh,others
COc1ccc(-n2c(=O)[nH]cc(C(=O)Nc3ccc4c(c3)OCCO4)c2=O)cc1OC,2,-4.3,·,·,·,
COc1ccc(C(C(=O)NCC2CCCO2)N(C(=O)CNC(=O)c2cccs2)c2ccc(NC(C)=O)cc2)cc1OC (configuration not stated),-6,-0.7,-11%,12,·,
Cc1cccc(C(=O)Nc2ccc(C(=O)N/N=C/c3cccc(C)n3)cc2)c1,5,0.8,·,·,·,
Cc1cc(NC(=O)C2CCCCC2C(=O)O)ccc1NC(=O)c1ccccc1 (configuration not stated),4,0.7,·,·,·,
S=C(NCCc1ccccc1)N1CCN(C(c2ccccc2)c2ccccc2)CC1,?,3.8,9%,-2,-37,
Nc1c(-c2ccccc2)c(CSc2nc3ccccc3[nH]2)nn1-c1cccc(Cl)c1,94,37*,?,34*,-18,
O=C(NCc1ccc(N2CCCC2=O)cc1)NC1CCCCC1,-3,-0.1,7%,5,-29,
Cc1c(C#N)c(N=CN(C)C)c(C(=O)c2ccccc2)n1-c1ccccc1,-1,3.7,0%,4,32,
CCOC(=O)N1CCC(Nc2c(NCCCOC)c(=O)c2=O)CC1,-7,-0.4,1%,13,-26,
COc1ccc(S(=O)(=O)NNC(=O)Nc2ccc(F)cc2)cc1,-13,0.9,·,·,·,
O=C(NC(=S)NCC1CCCO1)C(c1ccccc1)c1ccccc1 (configuration not stated),-4,1.1,-9%,-4,-27,
CCOC(=O)c1sc(N2C(=O)C(O)=C(C(=O)c3ccco3)C2c2ccc([N+](=O)[O-])cc2)nc1C (configuration not stated),2,0.2,·,·,·,
Cc1ccc(-c2nnc(SCC(=O)NC3CCS(=O)(=O)C3)nc2-c2ccc(C)cc2)cc1 (configuration not stated),2,-0.1,2%,-11,-3,
CCOC(=O)c1sc(SC)c2c1CCC/C2=N/OC,60,1.0,-1%,·,·,
COc1ccc(S(=O)(=O)NCCc2ccccc2)cc1OC,1,-1.6,·,·,·,
Cc1nnc(NC(=O)Cn2cnc3c2c(=O)n(C)c(=O)n3C)s1,-8,-1.4,-7%,-1,-21,
CCc1ccc(NC(=O)C(=O)NNC(=O)c2ccc(OC)cc2)cc1,95,-0.6,·,·,·,
O=C(COc1ccc2ccccc2c1)N1CCNCC1,1,0.5,·,·,·,
CCCc1cc2c(cc1NC(=O)c1ccc(C)cc1)OCO2,28,5.5,-2%,-7,-34,
COc1cc(C)ccc1OCCOCCOc1ccc([N+](=O)[O-])cc1,11,-0.7,3%,3,-17,
CCOc1ccc(-c2nc(N)ncc2-c2ccc(Cl)cc2)c(O)c1,43,1.6,·,·,·,
CCOc1ccc(-c2nnc(-c3cccs3)o2)cc1,11,1.5,-2%,-1,-41,
CCOc1cc(/C=N/O)cc(Br)c1OCc1ccc(Cl)cc1,66,0.9,17%,6,-34,
Cc1cc(Nc2ccccc2)c2c([N+](=O)[O-])ccc(C)c2n1,96,71*,37%,-10,-6,
O=c1ccc2cc(O[C@@H]3O[C@@H](CO)[C@H](O)[C@@H](O)[C@@H]3O)c(O)cc2o1,5,i,·,·,·,
CN(C(=O)c1ccc(OC2CCN(CCc3ccccc3)CC2)cc1)C1CCCCC1,9,-1.3,20%,-34,·,
O=C(CN1CCCCCC1)Nc1cccc(NC(=O)CN2CCCCCC2)c1,-7,0.7,·,·,·,
CCC(=O)Nc1cccc(-n2nnnc2SCC(=O)N2CCCCC2)c1,-3,·,12%,-4,·,
O=Cc1cccn1-c1cccc([N+](=O)[O-])c1,3,2.0,-6%,-2,·,
CCC(NC(=O)NNC(=O)c1ccncc1)(C(F)(F)F)C(F)(F)F,99,-1.0,?,·,·,
O=S(=O)(NCC1(N2CCOCC2)CCCCC1)c1ccc(Cl)cc1C(F)(F)F,5,3.0,·,·,·,
CN(CC(=O)Nc1c(Cl)cccc1Cl)C(=O)C1=COCCO1,0,-2.8,·,·,·,
CCCCNC(=O)c1sc(=S)n2c1[nH]c(=O)c1ccc(C(=O)NCCc3ccc(OC)c(OC)c3)cc12,59,3.6,·,·,·,
CCOC(=O)C1=C(CC)OC(N)=C(C#N)C1c1ccc(OC)c(OC)c1OC (configuration not stated),-1,·,3%,4,·,
Cc1cccc(/C=C/c2onc(C)c2[N+](=O)[O-])n1,99,1.3,·,·,·,
CCC(=O)c1ccc(Oc2ccc(C(=O)c3ccc(C)cc3)cc2[N+](=O)[O-])cc1,4,0.1,3%,-31,2,
CSCc1ccc(C(=O)Nc2cc(C)cc(C)c2)cc1,60,3.4,?,-5,-27,
COc1ccccc1-c1cc(C(=O)NCCCn2ccnc2)no1,?,-0.3,4%,-2,-7,
CCOC(=O)c1c(-c2ccccc2)oc2ccc(OC(C)C(=O)O)cc12 (configuration not stated),-4,2.7,-13%,·,·,
COc1ccc(N2CCN(c3ncnc4c3[nH]c3ccccc34)CC2)cc1,-8,-3.2,5%,-8,-23,
CCOc1ccccc1NC(=O)C1CCN(C(=O)NCc2ccccc2)CC1,1,-0.5,-18%,2,-18,
COc1ccc(S(=O)(=O)N2CCN(C(=O)C3CCC3)CC2)cc1,-4,-1.5,·,·,·,
Cc1cc(CNC(=O)C2CCC(=O)N(Cc3ccccc3F)C2)on1 (configuration not stated),?,0.2,·,·,·,
CCN(C(=O)COC(=O)CCCN1C(=O)c2cccc3cccc(c23)C1=O)C1CCS(=O)(=O)C1 (configuration not stated),-1,0.4,·,·,·,
CC(C)Cn1cnc2sc3c(c2c1=N)CCCC3,0,-1.5,-1%,16,-9,
COC(=O)c1ccc(CNC(=O)c2ccc3oc(C(C)C)nc3c2)cc1,-7,-0.3,·,·,·,
Cc1nn(CC(=O)NNC(=S)NCC2CCCO2)c(C)c1Br (configuration not stated),-2,-2.6,·,·,·,
O=C(Cc1c(F)cccc1Cl)NC1=NCCS1,-2,-1.7,4%,11,·,
O=C(Nc1ccccc1)Nc1nc(-c2ccccc2)cs1,7,-6.7,-1%,·,·,
O=C(NCCCCCCNC(=O)c1cncc(O)c1)c1cncc(O)c1,2,-1.4,·,·,·,
C=CCn1c(C)cc(C(=O)CSc2nc(N)cc(N)n2)c1C,-6,-0.6,6%,6,·,
O=C(c1cccc(S(=O)(=O)NCc2ccccc2)c1)N1CCN(c2cccc(C(F)(F)F)c2)CC1,67,5.8,·,·,·,
COc1ccc(OC)c(C(=O)NC(CC(N)=O)c2ccc(N3CCN(c4ccccc4)CC3)c([N+](=O)[O-])c2)c1 (configuration not stated),20,-2.0,·,·,·,
CCC(C)n1c(O)c(C=NCc2cccnc2)c(=O)[nH]c1=S (configuration not stated),3,-0.4,9%,·,·,
C=CCOc1nc2c(c(=O)n(C)c(=O)n2C)n1Cc1c(Cl)cccc1Cl,0,-1.0,11%,4,-48,
CCCOc1ccc2ccccc2c1/C=N/n1c(C)nnc1-n1nc(C)cc1C,4,7.0,1%,-5,-43,Arbovirus anti repeat=5
O=C(Cn1c(=O)sc2ccccc21)Nc1ccccc1,-10,-1.5,2%,6,-14,
COc1cc(Cl)cc(/C=N/NC(N)=O)c1O,6,-6.0,3%,-3,·,
CO/N=C(\Cn1ncc(N2CCCC2)c(Cl)c1=O)c1ccc(Cl)cc1,99,7.1,?,-9,1,
O=C(Cc1cccc(C(F)(F)F)c1)Nc1cccc(S(=O)(=O)N2CCCC2)c1,-18,2.2,·,·,·,
CN1CCOCCOCCN(C)C1=O,?,-1.1,-4%,-1,-27,
CCOc1cc(C(N)=O)cc(Br)c1OCC,-1,1.4,-3%,12,3,
CCOc1ccc(S(=O)(=O)N(CC)CC(=O)NC2CC2)cc1,-14,-2.0,·,·,·,
C=CCn1c(SCc2nc(N)nc(N(C)C)n2)nnc1-c1cccnc1,-5,3.5,·,-1,-20,

# Only part of the results is shown; rates above refer to the full screens.
